# Assay outcomes deposited in PubChem by National Center for Advancing Translational Sciences (NCATS).
# D2 PAM: potentiates the human D2 dopamine receptor allosterically; P14416; DiscoveRx D2 beta-arrestin cells, luminescence, 90 min; 100% = 57 uM dopamine signal; potentiation, % (test concentration not listed); 360,000 compounds, 0.23% hits; active = potentiation of 50% or more; inconclusive = 30% to 50%; inactive = 30% or less;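 note: compound concentration not given in the record; tested on top of an EC20 dose of dopamine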
#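 D2 cells co-treated with compound plus 50 nM dopamine (EC20) for 90 min at 37 deg C to detect potentiation. Beta-arrestin recruitment was read as enzyme-fragment luminescence after 1 h at ambient temperature. Full response was set by 57 uM dopamine.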
# TRPML1 ag: agonists of human TRPML1 channel. AID 624414. activation, % (concentration not given with the values). TRPML1-expressing cells, Ca2+ dye fluorescence, FDSS; host cell line not named in the record; reference of the full effect not given here. 410,000 compounds, 0.12% hits. Q9GZU1; in the data active = activation above about 50%; inconclusive = about 30% to 50%; inactive = below about 30%; note: 0% is about no effect; the text of the record puts the active cut at 80%
#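 TRPML1-DL cells, Tet-induced overnight (~16 h, 37 degrees C), loaded 45-90 min at room temperature with Ca8 no-wash calcium dye plus quencher. FDSS fluorescence: 10 s baseline, compound pin-transfer, 110 s agonist read, then EC80 54-4 (4uM final) and 110 s antagonist read.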
# CtBP-E1A blk: inhibitors of CtBP/E1A interaction. AlphaScreen GST-E1A/His-CtBP binding, 1536-well; hits give low values; control for the full effect not named in the record. activity change, % (no concentration beside the values). 340,000 compounds, 0.49% hits; in the data active means activity change below about -65%; inconclusive means about -30% to -65%; inactive means above about -30%; note: % is set by controls: 0 for no effect and ±100 for the full control effect
#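 Steps: dispense buffer (Tris pH 8.0, NaCl 300 mM, TCEP 1 mM, BSA, Tween 20); add 5X protein mix (GST-E1A, His-CtBP, 125 nM each); pin 23 nL compound; 2 h at 37 °C, dark; add 5X beads (50 ug/mL); 1 h; read.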
# D2 ag: human D2 receptor agonism in beta-arrestin assay; P14416; DiscoveRx PathHunter D2 beta-arrestin, luminescence, 90 min; 100% = 57 uM dopamine signal; activation, % (concentration not given with the values); 360,000 compounds, 0.084% hits; in the data active = activation above about 40%; inconclusive = about 15% to 40%; inactive = below about 15%; note: the text of the record calls up to 30% inactive
#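 DiscoveRx PathHunter D2 beta-arrestin cells (2,100/well) attached overnight, then compound-stimulated 90 min at 37 C in HBSS/10 mM HEPES/0.1% Tween-20 buffer; beta-galactosidase complementation read by luminescence after 1 h at ambient temperature. Dopamine 57 uM final (EC100) as control.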
# PINK1 expr mod: modulators of PINK1 expression. PINK1 immunofluorescence, high-content cytometry, 24 h. Potency, µM (doses to about 76.6 µM), for the others: at the highest dose activation (PINK1 increase), usual class: activators. 410,000 compounds, 0.2% hits. AID 624263; active = well fitted activation curve with a large enough effect; inconclusive = small, poorly fitted or top-dose-only effect; inactive = flat fitted curve, though single readings scatter; cell line not stated here;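 note: potency is the fitted concentration of half-maximal effect; % of control where 0% means no effect; nearly all actives have a fitted effect of over 65% in size; a mitochondrial uncoupler was the plate control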
#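 Decision-based qHTS: stable cells, 24 h exposure to five compound concentrations, CCCP as control. Fixed cells stained for PINK1 plus nuclear, mitochondrial and cell markers, cytometer read.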
# Six1-Eya2 inh: inhibitors of human Six1/Eya2 interaction; Q15475+O00167; AlphaScreen GST-Six1/His-Eya2 binding, biochemical; hits give low values; control for the full effect not named in the record; activity change, % (test concentration not listed); 360,000 compounds, 0.56% hits; AID 651725; in the data active = activity change below about -65%; inconclusive = about -30% to -65%; inactive = above about -30%; note: % is set by controls: 0 for no effect and ±100 for the full control effect
# Target sequence (O00167 whole entry, looked up): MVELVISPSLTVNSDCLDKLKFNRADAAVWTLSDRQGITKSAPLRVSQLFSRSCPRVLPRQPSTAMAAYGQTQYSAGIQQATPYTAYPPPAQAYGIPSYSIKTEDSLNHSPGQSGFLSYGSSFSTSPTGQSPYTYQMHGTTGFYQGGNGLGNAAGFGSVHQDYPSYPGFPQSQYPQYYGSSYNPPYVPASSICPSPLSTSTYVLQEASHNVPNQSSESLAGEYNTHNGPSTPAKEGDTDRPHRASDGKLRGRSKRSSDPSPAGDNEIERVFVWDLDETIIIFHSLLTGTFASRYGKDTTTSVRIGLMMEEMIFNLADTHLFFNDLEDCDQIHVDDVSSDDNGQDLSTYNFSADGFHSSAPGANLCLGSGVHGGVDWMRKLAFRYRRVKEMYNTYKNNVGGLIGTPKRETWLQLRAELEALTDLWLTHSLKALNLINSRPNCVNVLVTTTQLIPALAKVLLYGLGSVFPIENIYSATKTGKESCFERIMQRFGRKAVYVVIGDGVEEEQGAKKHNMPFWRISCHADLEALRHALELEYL
# Target sequence (Q15475 whole entry, looked up): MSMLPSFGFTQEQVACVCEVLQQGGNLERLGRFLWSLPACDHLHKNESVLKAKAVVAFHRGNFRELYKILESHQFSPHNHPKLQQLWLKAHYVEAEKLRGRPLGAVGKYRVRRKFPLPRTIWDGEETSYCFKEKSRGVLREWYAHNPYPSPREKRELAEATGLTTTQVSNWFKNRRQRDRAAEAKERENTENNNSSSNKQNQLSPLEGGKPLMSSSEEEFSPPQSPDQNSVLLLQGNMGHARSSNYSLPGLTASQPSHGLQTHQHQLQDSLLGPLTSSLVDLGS
#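 AlphaScreen with GST-Six1 and His-Eya2 (5X mix: 250 nM and 500 nM), glutathione donor and nickel acceptor beads; buffer 50 mM Tris pH 8.0, 300 mM NaCl, 1 mM TCEP; 1 h at 37 C in the dark.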
# The depositor's hits bear a star; ? = inconclusive; . = no result given; [ ] = remark or other dose.
compound	D2 PAM	TRPML1 ag	CtBP-E1A blk	D2 ag	PINK1 expr mod	Six1-Eya2 inh
C=CCn1c(C)cc(C(=O)COC(=O)c2ccc(N)c([N+](=O)[O-])c2)c1C	-5	1.3	-3	-1.9	1.9%	-29
CCC(Oc1ccccc1)C(=O)N1CCN(C(=O)C(CC)Oc2ccccc2)CC1 (configuration not stated)	-7	-0.3	9	1.3	-4.2%[38.3 µM]	-1
COc1cccc(-c2csc(N3CCN(CC(=O)NNC(=O)c4ccc(Br)cc4)CC3)n2)c1	2	1.8	4	0.8	-4.5%[38.3 µM]	-10
CCOc1ccccc1NC(=O)N1CCC(n2nnc3cc(C)ccc32)CC1	-11	0.3	8	-3.0	1.6%	-2
COc1ccc(-n2cnc3c(N)nc(N)nc32)cc1	-11	-0.6	2	-2.1	-0.9%	-5
Cc1ccc([N+](=O)[O-])cc1NC(=O)CSc1n[nH]c(-c2cccnc2)n1	-16	1.0	-1	-4.9	0.2%	-11
C=Cc1ccc(Cn2c(=O)n(C)c(=O)c3sccc32)cc1	4	0.5	-14	2.5	2.5%	-11
NS(=O)(=O)c1ccc(NC(=O)/C=C/c2ccccc2[N+](=O)[O-])cc1	-24	0.0	5	-2.7	4.3%	-1
CCOC(=O)C1CCCN(C(=O)CN2C(=O)C(CC)Oc3ccc(C)cc32)C1 (configuration not stated)	-17	-0.5	8	-0.2	4.2%[38.3 µM]	1
CCN(CC(=O)Nc1cccc(OC)c1)CC(=O)Nc1ccccc1C	-2	0.9	-10	4.8	-1.4%	-15
COc1ccc(-c2ccc(SCC(=O)c3ccccc3)nn2)cc1OC	3	-0.8	-13	8.7	0.8%	-24
Cc1cccc(-c2n[nH]c(=S)n2/N=C/c2ccco2)c1	-13	1.9	1	-5.8	-0.2%	1
C=C1C(=O)[C@@]23[C@H](O)C[C@@H]4C(C)(C)CC[C@H](O)[C@@]4(C)[C@@H]2CC[C@@H]1[C@H]3O	-9	1.0	-5	-2.9	-2.2%	8
O=C(NCc1ccncc1)C(=O)NCc1ccco1	-5	0.0	.	-0.6	2.2%	9
CC[C@@H]1C=C(C(=O)O)[C@H](c2ccc(Cl)c(Cl)c2)N1S(=O)(=O)c1ccc(C)cc1	.	-1.0	1	0.1	-0.9%	-8
Cc1c(C(=O)N2CCCC(C(F)(F)F)C2)oc2ccccc12 (configuration not stated)	0	2.2	11	-1.5	1.4%	6
COC(=O)C1Cc2c([nH]c3ccccc23)C2CCC(=O)N12 (configuration not stated)	-10	-0.6	-3	-1.1	-1.4%	-8
COC(=O)[C@H](Cc1ccccc1)NC(=O)Nc1ccc(S(N)(=O)=O)cc1	-25	-0.4	-2	-5.0	2.0%	0
CCCCC(=O)Nc1ccc(NC(=S)NC(=O)CC(C)C)cc1OC	-1	1.8	10	0.7	2.5%	1
CC(=O)N1CCN(S(=O)(=O)c2cccc(C(=O)Nc3nc4c(s3)CCCC4)c2)CC1	-1	-0.7	-12	-4.4	0.2%	-15

compound	D2 PAM	TRPML1 ag	CtBP-E1A blk	D2 ag	PINK1 expr mod	Six1-Eya2 inh
CCN(CC)S(=O)(=O)c1ccc(C(C)NC(=O)Cc2c[nH]c3ccccc23)cc1 (configuration not stated)	0	0.2	1	0.1	4.3%	2
Cc1cc(NC(=O)C(=O)NCc2cccc(Cl)c2)no1	-1	-0.2	16	-5.7	3.4%	5
N#Cc1cc2c(nc1SCc1cccnc1)CCCC2	-9	2.9	4	-1.5	-2.3%	5
Cc1ccc(NS(=O)(=O)c2ccc(OCC(=O)NCc3ccncc3)cc2)cc1	3	0.0	-1	2.2	0.2%	-8
Cc1cn([C@H]2C[C@H](N=[N+]=[N-])[C@@H](CO)O2)c(=O)[nH]c1=O	-3	-0.1	0	-3.3	3.8%	0
CC(C)Cn1cc(F)c(=O)n(CC(C)C)c1=O	-4	-0.4	-17	-3.2	-1.4%	-10
COc1ccc(C(C(=O)NCC2CCCO2)N(C(=O)CNC(=O)c2cccs2)c2ccc(C(C)=O)cc2)cc1OC (configuration not stated)	-3	-0.7	7	1.2	-0.5%	-17
Cc1noc(C)c1C(=O)Nc1nc(-c2ccccc2Cl)cs1	10	0.2	3	2.9	13%	-3
N#CCCn1c(SCC(=O)NCc2ccco2)nc2ccccc21	-6	-1.2	0	-4.6	-1.3%	-7
CCS(=O)(=O)c1ccc(O)c(N2C(=O)C3C4C=CC(C4)C3C2=O)c1 (configuration not stated)	-7	0.1	-2	3.0	-4.0%[38.3 µM]	2
Cc1cccc(CN2CCN(C(c3ccccc3)c3ccc(Cl)cc3)CC2)c1 (configuration not stated)	-24	1.0	3	-6.2	35µM*	17
O=C(NCc1ccccn1)C1CC(c2ccc(Cl)c(Cl)c2)=NO1 (configuration not stated)	-4	-0.7	-2	-0.5	2.4%	-1
C=CCN1C(=O)/C(=C2\SC(N3CCOCC3)=NC2=O)c2cc(Br)ccc21	12	0.5	-3	2.0	4.4%	0
O=S(=O)(c1ccc2oc(=S)[nH]c2c1)N1CCCCC1	-14	-0.1	.	-2.4	1.0%	0
O=C(OCC(=O)c1cccs1)C1=COCCO1	-3	-0.6	-2	-2.8	-1.2%	-1
Cc1ccc(-n2[nH]c(C)c(/C=N/NC(=O)c3ccc(O)cc3O)c2=O)cc1	-8	2.3	?	-1.0	-3.3%	?
CCOC(=O)CNC(=O)C1CCCc2c1[nH]c1ccc(Cl)cc21 (configuration not stated)	0	-0.3	1	-0.6	-0.9%	6
C=CCn1c(SCC(=O)NC2CC2)nnc1-c1ccccn1	-4	-0.3	-2	-3.5	0.6%	0
COCC(=O)NCc1nc2ccccc2n1Cc1ccccc1F	9	-0.4	7	-2.6	2.0%	5
CCOC(=O)c1c(NC(=O)COC(=O)c2cnc(C)cn2)sc(C(=O)N(C)C)c1C	-9	0.0	-17	-3.0	4.7%	2

compound	D2 PAM	TRPML1 ag	CtBP-E1A blk	D2 ag	PINK1 expr mod	Six1-Eya2 inh
O=C(OCc1ccc([N+](=O)[O-])cc1)C1CC(=O)N(Cc2ccccc2)C1 (configuration not stated)	-4	-1.2	5	-1.6	1.0%	-5
COc1cccc(OCc2nc3ccccc3c(=O)n2N)c1	-13	-0.5	11	-3.3	12%[38.3 µM]	2
Cc1ccc(Cc2c(C)nc3nc(SCC(=O)NCCCN4CCCC4)nn3c2C)cc1	-11	0.0	-10	1.7	0.4%	4
COC(=O)c1ccc(C(=O)NC2CCSc3ccccc32)cc1 (configuration not stated)	-2	-0.1	0	1.0	5.1%	1
CCCOC(=O)CCNc1n[nH]c(=O)[nH]c1=O	0	0.5	-1	-0.1	0.0%	2
CC(O)c1nc2ccccc2n1C/C=C/c1ccccc1 (configuration not stated)	-1	-0.1	-1	-3.1	3.9%[38.3 µM]	1
CCOC(=O)C(C#N)=CN1CCNc2ccccc21	-3	2.9	-4	0.5	5.1%	-13
COc1ccc(Cc2c(-c3ccc(OC)c(OC)c3)nc3ccc(C)cn23)c(C)c1	-13	-0.3	-4	-5.6	0.3%	-10
CC#CC(=O)NCC1(N(C)Cc2ccccc2)Cc2ccccc2C1	-2	1.9	6	-1.7	0.3%	-1
COc1ccc(N2C(=O)[C@H]3CCC=C[C@H]3[C@@H]2c2ccccc2Br)cc1	-6	1.8	1	-3.1	3.0%	-2
CCOc1ccccc1N(C(=O)c1ccco1)C(C(=O)NC1CCCC1)c1cccs1 (configuration not stated)	-6	2.3	4	-2.2	0.0%	17
O=c1[nH]c(C2CCN(S(=O)(=O)c3ccc4c(c3)OCCO4)CC2)nc2c1nnn2Cc1c(F)cccc1Cl	1	2.0	14	1.1	-1.9%	11
O=C(/C=C/Nc1ccc(Br)cc1F)c1ccccc1	-23	-0.4	12	-2.8	8.2%	1
FC(F)(F)c1ccccc1NC(=S)Nc1cccc2cnccc12	9	0.7	2	1.5	-1.5%	2
CC(C)(C)NS(=O)(=O)c1cnc(Cl)c(Cl)c1	-1	-0.7	1	-2.3	-2.3%	7
CCOc1ccc(C(=O)NNC2CC(=O)N(CCc3ccccc3)C2=O)cc1OC (configuration not stated)	-14	-0.6	-10	-3.6	-0.7%	-4
Cc1cc(C(=O)N2CCc3c([nH]c4ccccc34)C2c2cccc(Cl)c2)nn1C (configuration not stated)	2	1.7	0	0.1	-0.9%	-17
COc1ccccc1/C=C/C(=O)NCC(=O)N1CCC(N(C)C2CCCC2)CC1	-2	1.5	4	-3.3	0.0%	-1
CCN1CCN(C(C(=O)NC2CCCC2)c2cc3c(cc2[N+](=O)[O-])OCO3)CC1 (configuration not stated)	5	0.8	2	-1.7	-0.1%	-21
CC1(c2nnnn2Cc2ccccc2)CCC(=O)N1Cc1cccs1 (configuration not stated)	.	-0.7	-1	.	-1.1%	0

compound	D2 PAM	TRPML1 ag	CtBP-E1A blk	D2 ag	PINK1 expr mod	Six1-Eya2 inh
Cc1cccc(NC(=O)CC2C(=O)NC3CCCCC3N2C(=O)c2ccccc2Cl)c1 (configuration not stated)	-3	0.6	-1	-10	-0.5%	0
CCOc1ccc(C(=O)COC(=O)c2ccc(-n3cnnn3)cc2)cc1	5	-0.4	2	5.9	-0.7%	1
Cc1ccc(C(=O)/C=C/Nc2ccccc2C(N)=O)o1	2	-0.3	10	0.8	-3.6%[38.3 µM]	0
Cc1nc(S/C(=C\c2ccc(OCc3ccccc3Cl)cc2)C(=O)O)n[nH]1	-3	-0.4	2	-1.0	-2.9%	-2
CCCS(=O)(=O)N1CCCC(C(=O)N2CCN(C(=O)OCC)CC2)C1 (configuration not stated)	-16	-0.5	9	-2.4	-2.0%	0
COc1ccc(S(=O)(=O)NCc2ccc(C(=O)N3CCc4ccccc4C3)cc2)cc1	-1	-0.8	9	-1.7	-3.1%	-2
COc1ccccc1C(CNC(=O)CNC(=O)c1ccc(C)c(C)c1)N1CCCC1 (configuration not stated)	-26	-0.6	0	-4.8	1.5%	13
CCC(=O)N(CCc1ccccc1)Cc1cc2cc(OC)ccc2[nH]c1=O	-7	0.6	2	4.3	-0.4%	4
Cn1c(=O)[nH]c(=O)c2c1nc(N1CCNCC1)n2Cc1cccc2ccccc12	-43	-0.4	0	-14	-0.6%	-1
CCc1cc2c(=O)c(-c3ccc4c(c3)OCCO4)coc2cc1OC(=O)c1ccco1	-6	1.3	-14	0.4	20%[38.3 µM]	-8
C[C@@H]1NC(=O)/C(=C\c2ccccc2Br)NC1=O	-5	-1.3	2	0.6	-0.2%	1
CCN(CC)c1nc(NN)nc(Nc2ccc(C)c(Cl)c2)n1	-33	0.3	4	-6.2	0.5%	-6

# An excerpt from above in order of heavy-atom count, ascending:
compound	D2 PAM	TRPML1 ag	CtBP-E1A blk	D2 ag	PINK1 expr mod	Six1-Eya2 inh
C[C@@H]1NC(=O)/C(=C\c2ccccc2Br)NC1=O	-5	-1.3	2	0.6	-0.2%	1
COc1ccccc1C(CNC(=O)CNC(=O)c1ccc(C)c(C)c1)N1CCCC1 (configuration not stated)	-26	-0.6	0	-4.8	1.5%	13
COc1ccc(S(=O)(=O)NCc2ccc(C(=O)N3CCc4ccccc4C3)cc2)cc1	-1	-0.8	9	-1.7	-3.1%	-2
